UCH37 inh = blocks the human deubiquitinase UCH37; Q9Y5K5; purified proteasome/UCH37, Ub-AMC cleavage fluorescence; inhibition, % (concentration not given with the values); actives 0.33% (n = 330,000);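 active = mean of two replicates above 20%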;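 also: 0% = compound-free wells with enzyme and 100% = wells lacking proteasome; stock transfer was 100 nL into about 20 µL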
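system = Proteasome-associated human UCH37 deubiquitinase | amount = 0.15 nM proteasome as dispensed | medium = pH 7.4 Tris-HCl (50 mM) with ovalbumin, ATP-MgCl2, DTT | incubation = 30 min preincubation with enzyme, 25 min cleavage at room temperature | detection = AMC fluorescence 355/460 nm | read-out basis = percent inhibition | controls = no-proteasome and no-compound wells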
T cruzi inh = blocks replication of Trypanosoma cruzi. T. cruzi beta-gal in NIH3T3, luminescence, 90 h. inhibition, % (concentration not given with the values). actives 1.4% (n = 300,000);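 active = mean inhibition across valid replicates above about 55%, limit read from the data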;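 also: signal also drops with host cell toxicity which is not excluded here; 0% = plate median of DMSO wells and 100% = zero luminescence signal; higher percent means less beta-gal luminescence so fewer parasites; stock transfer was 50 nL into about 50 µL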
Beta apoptosis = beta cell apoptosis inhibition | protection from apoptosis, % (no concentration beside the values) | actives 0.8% (n = 300,000) | INS-1E cytokine-induced death, ATP luminescence, 48 h; percent of positive-control rescue, neutral wells zero | AID 435005;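 active = all replicates at 75% or more, or half of them and the mean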;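 also: 0% = cytokine-treated negative control wells and 100% = positive control rescue; higher means more ATP so stronger rescue from cytokine killing; wells of about 40 µL received 100 nL stock; the first replicate is given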
FGF22 binding = FGF22 (human) thermal shift binding | Q9HCT0 | recombinant FGF22 thermal shift, SYPRO orange fluorescence; percent of sucrose octasulfate shift, DMSO zero | calls only at 9.99 µM | actives 1.5% (n = 340,000) | AID 651658;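 active = melting point raised past a set limit in the mean and every replicate; three in four hits are not shown here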
Target sequence (Q9HCT0 whole entry, looked up): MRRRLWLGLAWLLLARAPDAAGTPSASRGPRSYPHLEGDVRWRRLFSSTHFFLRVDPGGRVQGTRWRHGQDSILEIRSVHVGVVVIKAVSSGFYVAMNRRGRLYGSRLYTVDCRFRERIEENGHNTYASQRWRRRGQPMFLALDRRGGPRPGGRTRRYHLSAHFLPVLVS
rRNA inh HTS = inhibitors of bacterial rRNA selective over humanized ribosomes | E. coli WT GFP vs humanized-ribosome RFP mutants, fluorescence, 24 h; stronger effect = lower value; DMSO median 0, no signal -100 | GFP signal change (wild-type ribosome), % (concentration not given with the values) | AID 720706 | actives 1.6% (n = 350,000);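 active = significant combined selectivity score with lowered wild-type GFP, culture density cut under 30%, mutant RFP and density less affected; inactive = any of these conditions unmet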; also: one replicate is shown; some compounds called inactive have numbers as strong as hits
E coli growth = E. coli growth inhibition; AID 1053175; OD600 absorbance (no concentration beside the values); Escherichia coli growth, OD600, 23 h; stronger effect = lower value; actives 0.21% (n = 330,000);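 active = OD600 absorbance below the run mean of sample wells minus 3.6 SD, in any replicate, cut at about 0.56 in these data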;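 also: stock transfer was 300 nL into about 60 µL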
A1 inh = inhibitors of the anti-apoptotic protein A1, read as caspase activation; MEF A1-2A-BIM cells, Caspase-Glo 3/7 luminescence, 3 h; percent of clofoctol response, vehicle zero; caspase activation, % (no concentration beside the values); actives 0.066% (n = 330,000);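 active = over half of replicate activation scores above 10%, or exactly half above 10 with the replicate mean above 10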;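 also: wells of about 30 µL received 50 nL stock; many hits fall short of the cut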
AF4-AF9 inh = MLL-AF4/AF9 protein interaction inhibition; inhibition, % at 10 µM; AID 651704; P42568; actives 0.47% (n = 350,000); AlphaScreen, biotin-AF4 peptide binding to FLAG-AF9;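 active = every replicate reaching a set inhibition limit, whatever the replicate mean, cut at about 25% in these data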;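 also: 0% = plate neutral control median and 100% = total signal loss; the record names both 10 and 1 µM as test concentration; the first replicate is given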
Target sequence (P42568 whole entry, looked up): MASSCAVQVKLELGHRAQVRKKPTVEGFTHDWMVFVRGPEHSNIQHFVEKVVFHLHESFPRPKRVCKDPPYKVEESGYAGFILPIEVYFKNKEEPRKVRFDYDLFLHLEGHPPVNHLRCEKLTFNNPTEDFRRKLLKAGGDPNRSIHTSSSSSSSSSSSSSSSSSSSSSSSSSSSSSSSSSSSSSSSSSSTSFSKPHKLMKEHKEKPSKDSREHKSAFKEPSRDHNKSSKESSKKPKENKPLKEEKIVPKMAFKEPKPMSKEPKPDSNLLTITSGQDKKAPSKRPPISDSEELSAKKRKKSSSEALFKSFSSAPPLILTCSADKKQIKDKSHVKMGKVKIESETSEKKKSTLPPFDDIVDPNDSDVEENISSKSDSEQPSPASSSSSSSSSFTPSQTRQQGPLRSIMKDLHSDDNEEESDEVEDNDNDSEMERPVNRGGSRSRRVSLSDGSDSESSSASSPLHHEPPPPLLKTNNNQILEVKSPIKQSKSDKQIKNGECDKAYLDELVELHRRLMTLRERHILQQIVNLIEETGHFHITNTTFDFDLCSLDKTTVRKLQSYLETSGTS
rRNA inh HTS OD600 = second read-out of rRNA inh HTS, no call of its own (marks repeat the call); OD600 change, %; measured here: OD600 growth;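 optical density of the mix in the first replicate; 0 = DMSO median and -100 = no signal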
rRNA inh HTS RFP = also measured in rRNA inh HTS; calls as there; RFP signal change, %; measured here: RFP humanized mutant strains;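 first replicate; 0 = DMSO median and -100 = no signal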
An asterisk follows results filed as active; i = inactive; x = not tested or not shown. These rows are one share of the data; rates above refer to the full screens.

no.	SMILES	UCH37 inh	T cruzi inh	Beta apoptosis	FGF22 binding	rRNA inh HTS
1	O=c1[nH]c(=O)n(CCc2ccccc2)c(O)c1C=NCc1ccc2c(c1)OCO2	5.2	-2	1	x	x
2	CCN1CCN(Cc2cc(OC)c3c(c2)OCO3)CC1	2.8	9	-8	i	1
3	O=C(c1cc(Br)ccc1Cl)N1CCC2(CC1)OCCO2	4.6	-5	-8	x	x
4	FC(F)(F)c1ccc2c(c1)ncn2C1CCN(Cc2nnnn2C2CCCCC2)CC1	0.1	15	-1	x	x
5	CC(C)CC(=O)Nc1ccc(S(=O)(=O)N2CC3CC(C2)c2cccc(=O)n2C3)cc1 (stereo unspecified)	-0.3	-4	-3	i	17
6	Cc1cc(C)c(C2=NOC(O)(C(F)(F)F)C2)c(=O)[nH]1 (stereo unspecified)	0.6	-12	x	x	x
7	COc1ccc(C(CC(=O)N2CCC3(CC2)OCCO3)NS(=O)(=O)c2ccc(OC)cc2)cc1 (stereo unspecified)	-2.0	-7	-2	x	x
8	O=C1NC(=O)C(CCc2ccncc2)(c2ccccc2)C(=O)N1	4.0	-3	3	x	x
9	COC(=O)C1C(C(=O)O)C2(Cl)C(Cl)=C(Cl)C1(Cl)C2(Cl)Cl (stereo unspecified)	2.1	x	x	i	-7
10	COC(=O)C1=C(c2ccc(OC)c(OC)c2)C[C@@H]2CC[C@H]1N2C(=O)NCc1ccc(F)cc1	0.4	x	7	i	-7
11	Cc1ccccc1CN1CCCN(Cc2ccc(Cl)cc2)S1(=O)=O	2.2	4	x	i	-29
12	Cc1ccc(N=C(/N=C(\N)N[N+](=O)[O-])Nc2ccc(C)cc2)cc1	0.2	4	-8	x	12
13	O=[N+]([O-])NC1=NCN(Cc2ccco2)CN1Cc1ccco1	4.1	-6	-15	i	6
14	CC(=O)O[C@@H]1CC[C@]2(C)C3CC[C@@]4(C)C(C[C@@H](O)[C@@H]4O)C3[C@@H](OC(C)=O)C[C@H]2C1 (stereo partly specified)	3.5	x	-4	i	4
15	O=C1NC(=O)N(Cc2ccc(F)cc2)C(=O)/C1=C\c1ccoc1	x	-15	-12	i	25

no.	rRNA inh HTS OD600	rRNA inh HTS RFP	E coli growth	A1 inh	AF4-AF9 inh
1	x	x	0.68	1.2	x
2	0	-1.4	0.7	0.8	-3.6
3	x	x	0.65	0.9	x
4	x	x	0.7	0.2	x
5	6	1.8	0.7	0.4	0.1
6	x	x	0.7	-4.5	x
7	x	x	0.8	-1.0	x
8	x	x	0.71	-0.4	x
9	-16	1.2	0.65	x	-3.5
10	-8	4.2	x	0.1	-3.3
11	-34	-7.4	0.65	-0.4	-5.2
12	18	3.7	0.71	0.2	-0.2
13	12	6.9	0.68	-0.5	12
14	14	-6.3	0.69	0.1	-1.8
15	9	21	x	-0.1	1.4

Exported with two lines to a compound: entries from further up.
Second line of a record: UCH37 inh, T cruzi inh, Beta apoptosis, FGF22 binding, rRNA inh HTS, rRNA inh HTS OD600, rRNA inh HTS RFP, E coli growth, A1 inh, AF4-AF9 inh
(1) O=c1[nH]c(=O)n(CCc2ccccc2)c(O)c1C=NCc1ccc2c(c1)OCO2
    5.2, -2, 1, x, x, x, x, 0.68, 1.2, x
(2) CCN1CCN(Cc2cc(OC)c3c(c2)OCO3)CC1
    2.8, 9, -8, i, 1, 0, -1.4, 0.7, 0.8, -3.6
(3) O=C(c1cc(Br)ccc1Cl)N1CCC2(CC1)OCCO2
    4.6, -5, -8, x, x, x, x, 0.65, 0.9, x
(4) FC(F)(F)c1ccc2c(c1)ncn2C1CCN(Cc2nnnn2C2CCCCC2)CC1
    0.1, 15, -1, x, x, x, x, 0.7, 0.2, x
(5) CC(C)CC(=O)Nc1ccc(S(=O)(=O)N2CC3CC(C2)c2cccc(=O)n2C3)cc1 (stereo unspecified)
    -0.3, -4, -3, i, 17, 6, 1.8, 0.7, 0.4, 0.1
(6) Cc1cc(C)c(C2=NOC(O)(C(F)(F)F)C2)c(=O)[nH]1 (stereo unspecified)
    0.6, -12, x, x, x, x, x, 0.7, -4.5, x
(7) COc1ccc(C(CC(=O)N2CCC3(CC2)OCCO3)NS(=O)(=O)c2ccc(OC)cc2)cc1 (stereo unspecified)
    -2.0, -7, -2, x, x, x, x, 0.8, -1.0, x
(8) O=C1NC(=O)C(CCc2ccncc2)(c2ccccc2)C(=O)N1
    4.0, -3, 3, x, x, x, x, 0.71, -0.4, x
(9) COC(=O)C1C(C(=O)O)C2(Cl)C(Cl)=C(Cl)C1(Cl)C2(Cl)Cl (stereo unspecified)
    2.1, x, x, i, -7, -16, 1.2, 0.65, x, -3.5
(10) COC(=O)C1=C(c2ccc(OC)c(OC)c2)C[C@@H]2CC[C@H]1N2C(=O)NCc1ccc(F)cc1
    0.4, x, 7, i, -7, -8, 4.2, x, 0.1, -3.3
(11) Cc1ccccc1CN1CCCN(Cc2ccc(Cl)cc2)S1(=O)=O
    2.2, 4, x, i, -29, -34, -7.4, 0.65, -0.4, -5.2
(12) Cc1ccc(N=C(/N=C(\N)N[N+](=O)[O-])Nc2ccc(C)cc2)cc1
    0.2, 4, -8, x, 12, 18, 3.7, 0.71, 0.2, -0.2

Next structures:
no.	SMILES	UCH37 inh	T cruzi inh	Beta apoptosis	FGF22 binding	rRNA inh HTS
16	CN(C)c1ccc2c(c1)N=C(c1ccco1)OP2(=S)N1CCOCC1 (stereo unspecified)	3.5	4	6	x	x
17	CC[N+](CC)(CC)CCCCCCCCCC[N+](CC)(CC)CC	1.9	-21	x	x	x
18	CCc1ccc(CN2CCCC(C(=O)c3sccc3C)C2)o1 (stereo unspecified)	0.2	55*	-4	i	2
19	O=C(Nc1ccc(F)c([N+](=O)[O-])c1)N1C[C@H]2C[C@@H](C1)c1cccc(=O)n1C2	2.9	-13	x	i	0
20	CC(=NCc1ccc(F)cc1)c1c(O)n(C)c(=O)n(C)c1=O	3.0	-13	3	x	x
21	CCC(=NCC1CCCO1)c1c(O)n(-c2ccc(OC)cc2)c(=O)[nH]c1=O (stereo unspecified)	3.4	x	-2	i	4
22	C=CCn1c(O)c(C(C)=Nc2cccc(C(F)(F)F)c2)c(=O)[nH]c1=O	4.1	-21	x	i	23
23	C[N+](C)(C)CC#CCN1CCCC1=O	1.8	1	-8	i	12
24	CC(Cc1ccccc1)[n+]1cc(/N=C(\[O-])Nc2ccccc2)on1 (stereo unspecified)	6.9	7	-9	x	x
25	O=C(Cn1cnc2ccccc2c1=O)NCCC(=O)N1CCC2(CC1)OCCO2	3.3	-11	2	x	x
26	CC(=O)N1N=C(c2cccnc2)CC1c1ccccc1O (stereo unspecified)	1.3	-14	1	i	5
27	CN(C)c1ccc(/C=C2/C(=O)NC(=O)N(Cc3ccco3)C2=O)cc1	1.7	-10	x	i	x
28	COc1ccc(OC)c(NC2=NCCCS2)c1	0.2	-14	-2	i	7
29	COc1ccc2c(c1)CC1(CN2C)C(=O)NC(=O)N(c2ccc(F)cc2)C1=O (stereo unspecified)	5.6	-2	2	x	x
30	Cc1ccc(Cn2nnnc2CN2CCC(n3nnc4ccccc43)CC2)cc1	2.3	3	2	x	x

no.	rRNA inh HTS OD600	rRNA inh HTS RFP	E coli growth	A1 inh	AF4-AF9 inh
16	x	x	0.67	0.7	x
17	x	x	0.72	-0.7	x
18	6	1.7	0.69	0.5	0.1
19	4	0.5	0.67	1.0	-2.0
20	x	x	0.69	-0.6	x
21	3	0.3	0.62	1.1	-1.8
22	16	1.8	0.7	0.0	-2.8
23	12	1.8	0.67	1.2	-4.1
24	x	x	0.69	-2.5	x
25	x	x	0.72	0.0	x
26	3	1.6	0.73	0.2	-0.6
27	x	x	0.66	-0.2	-0.3
28	-8	-0.6	0.7	-0.4	2.7
29	x	x	0.71	-0.4	x
30	x	x	0.68	-0.2	x

Arranged by heavy-atom count (falling): part of the list above.
no.	SMILES	UCH37 inh	T cruzi inh	Beta apoptosis	FGF22 binding	rRNA inh HTS
21	CCC(=NCC1CCCO1)c1c(O)n(-c2ccc(OC)cc2)c(=O)[nH]c1=O (stereo unspecified)	3.4	x	-2	i	4
22	C=CCn1c(O)c(C(C)=Nc2cccc(C(F)(F)F)c2)c(=O)[nH]c1=O	4.1	-21	x	i	23
24	CC(Cc1ccccc1)[n+]1cc(/N=C(\[O-])Nc2ccccc2)on1 (stereo unspecified)	6.9	7	-9	x	x

no.	rRNA inh HTS OD600	rRNA inh HTS RFP	E coli growth	A1 inh	AF4-AF9 inh
21	3	0.3	0.62	1.1	-1.8
22	16	1.8	0.7	0.0	-2.8
24	x	x	0.69	-2.5	x

Source: PubChem (several laboratories)
